Screening data (PubChem BioAssay)
ugtP null kill = growth inhibition of S. aureus ugtP deletion strain | S. aureus RN4220 ugtP deletion, OD600 growth, 16 h; some inactives read as strong as hits | growth inhibition, % (concentration not given with the values) | 330,000 compounds, 0.54% hits;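 active = z-score under -3 and OD600 up to 0.15 on both plates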;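 note: plate controls were untreated wells for no effect and antibiotic for full effect; wells of about 80 µL received 100 nL stock; the first replicate is given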
BJeLR viability = BJeLR cell viability loss; inhibition, % (no concentration beside the values); 300,000 compounds, 0.17% hits; BJeLR (HRASV12) viability, CellTiter-Glo ATP luminescence, 48 h; reference of the scale not given here;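 active = replicate mean above 50%; inconclusive = above 50% but judged a plate artefact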;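 note: 50 nL library stock added to about 25 µL; numbers are from one replicate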
Autofluor counter = compound fluorescence in toxin protease inhibitor counterscreen; compound autofluorescence counterscreen, microsphere flow cytometry; hits give high values; fluorescence intensity (no concentration beside the values); 360,000 compounds, 3.1% hits; AID 624483;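 active = at least 3 SD above the mean of all compounds, about 16000 in these data; inconclusive = too few beads counted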;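 note: 100 nL of 1 mM stock went into each well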
RN4220 kill = S. aureus RN4220 growth inhibition; 330,000 compounds, 0.33% hits; inhibition, % (test concentration not listed); OD600, 16 h;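 active = z-score of -3 or lower and OD600 up to 0.18 on both plates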;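 note: plate controls were untreated cells for no effect and reference antibiotic for full effect; stock transfer was 100 nL into about 80 µL; one replicate is shown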
PrP 5UTR inh = suppresses PrP 5' UTR mRNA reporter expression; cell-based PrP 5' UTR mRNA reporter, plate reader; inhibition, % (no concentration beside the values); 340,000 compounds, 0.35% hits;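 active = every replicate at 50% or more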;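 note: 0 = median of the neutral control wells; tested in H4 reporter cells; numbers are from one replicate; inactives centre near -14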
Mtb hypoxia rep = Mtb hypoxia fluorescent reporter inhibition; fluorescence inhibition, % (concentration not given with the values); AID 1159583; M. tuberculosis hypoxia-regulated fluorescent reporter, fluorescence; 300,000 compounds, 0.1% hits;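 active = 35 to 45% if threefold the growth effect, above 45% if 1.5-fold the growth effect; inactive = the rest, general growth blockers included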;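 note: wells of about 50 µL received 100 nL stock; 0% = vehicle wells and 100% = reference inhibitor wells; whole bacteria with a GFP reporter of the hypoxia response; strong numbers were not always called active; many hits fall short of the cut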
Mtb hypoxia rep growth = also measured in Mtb hypoxia rep; calls as there; growth inhibition, %; measured here: M. tuberculosis growth (absorbance);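 0% = vehicle and 100% = reference antibiotic; read after six days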
* marks the source's active call; other numbers are inactive results; ? = inconclusive; · = no result given; & = joins results of further samples.

SMILES	ugtP null kill	BJeLR viability	Autofluor counter	RN4220 kill	PrP 5UTR inh	Mtb hypoxia rep	Mtb hypoxia rep growth
COc1ccc(N=C2SC(CC(=O)Nc3ccccc3OC)C(=O)N2Cc2ccco2)cc1 (stereo unspecified)	·	-18	2499	·	-10	·	·
CC(=O)c1sc(N2CCOCC2)nc1-c1ccccc1	-3	5	4210	6.7	0	4	-1
CCc1ccc(OCC(O)CN2CCN(c3ccccn3)CC2)cc1 (stereo unspecified)	17	6	4024	1.4	-21	-3	9
CCc1ccc(NC(=O)CC(C)=NNC(=O)OCc2ccc(OC)cc2)cc1	6	·	·	5.0	·	9	3
CC(C)CCn1cnc2c(cnn2-c2ccc(F)cc2)c1=O	-3	-5	2404	-4.8	-36	14	7
Cc1ccc(S(=O)(=O)N2CC(C)C(=O)CC2C)cc1 (stereo unspecified)	14	-11	4309	4.3	-6	-6	-14
CCOC(=O)C(NCc1ccccc1OC)(NC(C)=O)C(F)(F)F (stereo unspecified)	-1	-7	4612	3.7	-25	2	7
O=C(Nc1cccc(C(=O)O)c1)C(=Cc1ccccc1)NC(=O)c1ccccc1	-3	·	·	7.2	·	13	6
COc1ccc(S(=O)(=O)NCC2CCCN(C(=O)c3cccnc3C)C2)cc1 (stereo unspecified)	4	-11	3653	2.9	7	12	1
Cc1ccc(NC=C(C#N)c2ccsc2)cc1	1	·	·	3.9	·	8	0
COc1ccc(S(=O)(=O)Nc2ccc3c(c2)C(=O)N([C@H](C)CO)C[C@H](C)[C@@H](CN(C)S(=O)(=O)c2c(C)noc2C)O3)cc1	-2	·	2900	-11	-19	7	12
CC1=NN(C(N)=S)C(=O)C1N=Nc1c(Br)cc(Br)cc1Br (stereo unspecified)	·	-9	3726	·	-13	·	·
O=C(Nc1ccc(OCC(=O)N2CCC(Cc3ccccc3)CC2)cc1)c1ccco1	0	5	·	4.4	-9	14	13
CCN(CC(=O)NCc1cccs1)c1nnnn1-c1ccccc1	-1	-6	3780	2.7	-10	16	6
O/N=C1\CCSc2ccc(F)cc21	·	-8	?	·	-5	·	·
Fc1ccccc1Cc1nnc2n1N=C(c1ccc(Cl)cc1)CS2	·	0	2760	·	-13	·	·
CCCN(C(=O)CSc1ncccn1)C1CCS(=O)(=O)C1 (stereo unspecified)	2	·	6248	2.8	-15	1	-4
Cc1cc(C)cc(N2C(=O)NC(=O)/C(=C\C=C\c3ccco3)C2=O)c1	-1	31	2067	2.7	-15	5	5
O=C(NCCCN1CCOCC1)C1CCCN(S(=O)(=O)N2CCCCC2)C1 (stereo unspecified)	1	1	5551	-1.0	6	-3	-2
COc1ccc(Cl)cc1S(=O)(=O)NCCCn1ccnc1	3	-6	3213	0.3	-1	4	-7
O=C(c1cccs1)N(Cc1cccc(F)c1)C1CCS(=O)(=O)C1 (stereo unspecified)	4	5	5123	4.3	0	3	4
Cc1nnc(NC(=O)CSc2nnc(NC(=O)C(C)(C)C)s2)s1	5	6	4631	1.0	-26	3	11
CCN(CC)CC(=O)Nc1c(C#N)cnn1-c1ccccc1	7	-4	4153	-1.8	-37	5	0
CCCCCCSc1ccc(C2N[C@@](CC(C)C)(C(=O)OC)C3C(=O)N(CC)C(=O)C23)cc1 (stereo partly specified)	2	·	·	-7.7	·	6	7
Cc1nn(C)c(C(=O)NN=Cc2cc3c(cc2Br)OCO3)c1Br	-3	·	·	0.4	·	-3	8
O=C(NC(=S)N1CCN(c2ccc([N+](=O)[O-])cc2)CC1)c1ccco1	7	3	2344	2.4	-1	3	0
O=C1CSC(=Nc2ccc(Cl)cc2)N1Cc1cccnc1	7	4	3619	4.9	-65	-1	10
CC(=O)c1cc(F)c(N2CCN(C(=O)c3ccco3)CC2)cc1C	-7	2	2588	2.8	-26	·	·
C=C(C)CNC(=S)NN=C1c2ccccc2-c2ccccc21	6	16	4549	-0.8	-16	6	3
Cc1ccc(NC(=O)C2CCN(S(=O)(=O)c3cccc4nonc34)CC2)nc1	-6	8	2395	-3.7	-13	·	·
CCCCn1c(=O)c(C(=O)Nc2ccc(C)cn2)c(O)c2ccccc21	5	5	·	2.3	-22	8	-1
CCOc1ccc2[nH]c(=O)c(CN(Cc3cccnc3)C(=O)Nc3ccccc3OC)cc2c1	5	-3	2483	-5.8	-19	-6	-9
O=C(NCCN1C(=O)S/C(=C\c2ccccc2)C1=O)c1cc(S(=O)(=O)N2CCOCC2)c(Cl)cc1Cl	-6	4	2205	6.4	-21	4	4
O=C1C(Nc2cccc(O)c2)=C(N2CCCCC2)C(=O)c2ccccc21	-8	2	7889	9.2	-18	-2	7
Nc1nc(SCc2ccc(Cl)cc2)[nH]c(=O)c1-c1ccccc1	13	4	3611	-1.9	-6	·	·
O=C(c1cc(F)ccc1F)C1CCCN(Cc2cc(Cl)ccc2O)C1 (stereo unspecified)	11	-8	4328	7.6	-5	14	3
CC(C)(C)CC(=O)Nc1cc(S(=O)(=O)N2CCOCC2)ccc1N1CCCC1	0	-10	4925	2.2	8	7	4
CCc1ccc(C(=O)COC(=O)c2ccco2)cc1	9	-11	5070	2.5	-54	5	5
COC(=O)c1c(NC(=S)Nc2cc(OC)c(Cl)cc2OC)sc2c1CCCCC2	14	13	6884	-9.8	-15	5	-1
Cc1ccc([N+](=O)[O-])cc1NC(=O)CN(C1CCCCC1)S(=O)(=O)c1ccc(Cl)cc1	-14	-8	2512	-5.6	-3	3	5
O=C(Nc1cccc(-c2cn3ccccc3n2)c1)c1ccccc1	7	2	3229	-6.0	-25	5	0
Cc1ccc(NC(=O)CCC(=O)N/N=C/c2coc3ccc(F)cc3c2=O)cc1	·	-9	4874	·	-29	·	·
CCc1noc(C)c1C(=O)OCC(=O)NC(=O)c1ccccc1	-4	-3	5588	3.0	-18	0	5
O=C(CSc1nnc(-c2ccncc2)n1C1CCCCC1)Nc1ccccc1	-5	-3	20697*	7.5	-37	8	6
Cc1ccc(C(=O)NCC(=O)NCC(=O)OCC(=O)c2ccc(Br)cc2)cc1	·	4	2103	·	-29	·	·
CN1CCN(c2nc3ccccn3c(=O)c2/C=C(\C#N)S(=O)(=O)c2ccc(Cl)cc2)CC1	6	16	5507	4.1	-17	15	5
CC(=O)N1CCN(c2ccc(Oc3ncnc4sccc34)cc2)CC1	-3	0	9373	2.5	-10	22	16
CC1CN(Cc2cc(=O)[nH]c(C(C)C)n2)CC(C)O1 (stereo unspecified)	5	5	3181	0.9	-9	2	4

One compound at a time, as listed above. Values in the order: ugtP null kill | BJeLR viability | Autofluor counter | RN4220 kill | PrP 5UTR inh | Mtb hypoxia rep | Mtb hypoxia rep growth
Results for O=C(Nc1cccc(-c2cn3ccccc3n2)c1)c1ccccc1 : 7 | 2 | 3229 | -6.0 | -25 | 5 | 0
Results for COC(=O)c1c(NC(=S)Nc2cc(OC)c(Cl)cc2OC)sc2c1CCCCC2 : 14 | 13 | 6884 | -9.8 | -15 | 5 | -1

New compounds follow
SMILES	ugtP null kill	BJeLR viability	Autofluor counter	RN4220 kill	PrP 5UTR inh	Mtb hypoxia rep	Mtb hypoxia rep growth
COc1cc(/C=N/NC(=O)c2ccncc2)ccc1OC(=O)c1ccco1	·	9	5414	·	-2	·	·
Cc1ccccc1NC(=O)CCC(=O)NN=Cc1ccc(F)cc1	14	·	·	4.4	·	8	5
CC1=NCCN1S(=O)(=O)c1cc(Cl)ccc1Cl	5	2	3257	1.3	1	7	-4
COc1cc(C=NNc2ncc(C(F)(F)F)cc2Cl)cc(OC)c1OC	8	·	·	-4.1	·	9	4
CCOCc1cnc(C)nc1NCC(=O)c1c(C)[nH]c2ccc(OC)cc12	5	10	7830	4.6	-22	4	7
COc1ccc(S(=O)(=O)N2CCCCC2)cc1NC(=O)c1ccc(Cl)nc1	-7	·	3689	1.1	-3	-17	-2
C=CCn1c(C(O)c2ccccc2)nc2ccccc21 (stereo unspecified)	3	4	4134	0.8	-22	6	-4
CC(=O)c1cccc(NC(=S)NNC(=O)c2ccco2)c1	11	6	5182	1.9	-8	0	9
O=C(NCc1ccncc1)C(=O)NCC(c1ccco1)N1CCN(c2ccc(F)cc2)CC1 (stereo unspecified)	14	-15	7479	2.1	-16	12	2
O=C(C1=CC(c2ccc(C(F)(F)F)cc2)CC(OCc2ccc(CO)cc2)O1)N1CCN(Cc2ccc3c(c2)OCO3)CC1 (stereo unspecified)	12&19	·	·	15&24	·	18&7	10&15
CCOC(=O)CC(=O)CSc1ncnc2c1cnn2-c1ccccc1	5	-6	·	5.5	-87	8	12
CC(C)(C)C(=O)N1CCN(c2ccc([N+](=O)[O-])c(NCC3CCCO3)c2)CC1 (stereo unspecified)	12	1	5177	2.2	-22	13	0
COc1cc2cc(NC(C)=O)cc(NCc3ccccc3)c2cc1OC	9	8	6021	3.9	-7	8	6
O=c1[nH]ncc(NN=Cc2cccs2)c1Cl	6	·	·	7.6	·	-8	5
CC(C)c1cc(C(=O)N/N=C/c2cccnc2)n[nH]1	·	2	2612	·	-3	·	·
CSc1ccccc1C(=O)N1CCC(n2nccc2NC(=O)C(C)(C)C)CC1	2	0	5023	6.1	-9	8	10
O=C(O)CC(CC(=O)Nc1ccc(F)c(Cl)c1)c1ccc(Cl)cc1Cl (stereo unspecified)	-4	-1	4676	-5.3	-24	10	6
Cc1ccc(-c2cc(C(F)(F)F)n3nc(C(=O)N4CCN5CCCC5C4)cc3n2)cc1 (stereo unspecified)	16	-7	4640	0.1	-3	-1	1
CCOCCCNC(=O)CN1C(=O)c2cccc3cccc1c23	1	-9	3541	1.4	-27	-3	2
O=C(NC(=S)Nc1cccc2c(O)cccc12)c1cccc(Br)c1	100*	-1	3978	50	-14	-1	7
Cc1coc2cc3oc(=O)c(CCC(=O)NCCCN4CCOCC4)c(C)c3cc12	-2	-3	5874	0.2	-6	·	·
CC(=O)c1ccc(S(=O)(=O)Nc2c(C)nn(C)c2C)cc1	2	·	?	0.8	10	3	-1
CCC1CCCCN1CCCNC(=O)CSc1nc2nc(C)c(Cc3ccc(C)cc3)c(C)n2n1 (stereo unspecified)	0	-10	7693	-1.8	-24	4	5
CCn1cc(/C=C(\NC(=O)c2ccccc2F)C(=O)NCCCn2ccnc2)c2ccccc21	-4	-1	4210	-3.8	9	2	-4
O=C(/C=C/c1ccccc1[N+](=O)[O-])NCCc1ccc(F)cc1	-9	-3	2256	-2.0	-15	-9	2
Cc1ccc(OCCCCNC2CCCC(C)C2C)c(C)c1 (stereo unspecified)	-3	4	2702	-0.8	-15	·	·
N#Cc1ccccc1OCC(=O)Nc1ccc2c(c1)OCCCO2	1	-5	3015	2.5	-51	11	1
CC1CCN(C(=O)CN2C(=O)NC(C)(c3ccc4ccccc4c3)C2=O)CC1 (stereo unspecified)	6	·	5579	3.5	-10	5	11
Cc1ccn2c(CN3CCOCC3)c(-c3ccccc3)nc2c1	-3	-6	2687	1.2	-12	·	·
COC(=O)CCC(=O)c1oc2ccccc2c1N	-14	-14	6133	-2.5	-23	-6	-11
COCCNC(=O)CCc1c(C)nc2c(-c3ccc(F)cc3)c(C)nn2c1C	-17	9	4149	0.8	-6	-13	0
COCCNc1nnc(SCC(=O)NC(=O)c2ccccc2OC)s1	3	-5	6286	2.4	-6	6	2
O=C1c2ccccc2C(Nc2ccc(F)c(Cl)c2)N1Cc1ccco1 (stereo unspecified)	-6	4	7095	9.1	-6	-4	-1
C=CCN1C(=O)NC(=O)/C(=C/c2ccc(N(C)C)c(Br)c2)C1=O	4	17	3444	5.1	-7	12	2
CCC1=C(OC(=O)N(CC)CC)N2C(=O)OC(=NCC(=O)OC)[C@]2(C)[C@H]2C1=CC[C@H]1C(=O)N(C)C(=O)[C@H]12	·	9	3912	·	-18	·	·
Cc1ccccc1-c1nc(CS(=O)CC(=O)NCCN2CCOCC2)c(C)o1 (stereo unspecified)	3	-11	6562	-4.2	-21	14	8
CN(Cc1ccc(C(C)(C)C)cc1)C(=O)C1CSC2(C)CCC(=O)N12 (stereo unspecified)	1	·	5629	3.0	0	1	12
